Source: PubChem
Cruzain noTriton – inhibitors of Trypanosoma cruzi cruzain without detergent. purified cruzain, Z-FR-AMC fluorescence, no detergent. Potency, µM, for inactives: max response, negative = inhibition, most hits filed as inhibitors. 200,000 compounds, 2.3% hits;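 note: plate controls were enzyme without inhibitor for no effect and buffer without enzyme for full effect; nearly all actives have a fitted effect of over 40% in size; top concentration of the series not given in the record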
Target sequence (P25779 123-467 limits assumed): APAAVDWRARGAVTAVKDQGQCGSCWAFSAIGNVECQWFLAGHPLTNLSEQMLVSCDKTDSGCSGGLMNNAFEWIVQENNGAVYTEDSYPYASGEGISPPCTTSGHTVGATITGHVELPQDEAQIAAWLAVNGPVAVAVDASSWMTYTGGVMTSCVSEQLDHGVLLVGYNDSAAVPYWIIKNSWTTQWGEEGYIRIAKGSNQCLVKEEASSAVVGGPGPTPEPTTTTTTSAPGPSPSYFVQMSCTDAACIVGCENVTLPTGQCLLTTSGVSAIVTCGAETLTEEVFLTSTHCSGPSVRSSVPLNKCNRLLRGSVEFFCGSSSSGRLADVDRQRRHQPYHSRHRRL
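Detergent-free condition (0.00005% Triton X-100) in acetate buffer pH 5.5 with DTT. 1.5 nM enzyme and compound were pre-mixed 15 min, then 2 uM Z-FR-AMC substrate added; reaction progress from fluorescence change between first and third reads (60 s).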
RE007 growth inh – less growth of the S. pombe RE007 Vpr strain. S. pombe RE007 Vpr strain, BacTiter-Glo ATP luminescence, 24 h; control for the full effect not named in the record. Potency, µM (doses to about 92.2 µM), without a hit: top-dose activity change, negative = less growth. 360,000 compounds, 0.21% hits; active = well fitted falling curve with a large enough effect; inconclusive = small, poorly fitted or top-dose-only effect; inactive = no such curve, though single readings can be large or run the other way;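 note: % is set by controls: 0 for no effect and ±100 for the full control effect; nearly all actives have a fitted effect of over 50% in size; the assay follows cell death caused by Vpr and the record does not say whether a fall means rescue or toxicity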
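Fission yeast RE007 carrying one integrated HIV-1 vpr copy, seeded at OD 0.01 in PMG+AL medium with 23 nL pinned compound. Grown 24 h at 30 degrees; viability read by BacTiter-Glo luminescence after 5 min.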
Cruzain inh Det – cruzain (T. cruzi) inhibition with detergent; 200,000 compounds, 0.43% hits; Potency, µM, for the others: max response, negative = inhibition, hits mostly inhibitors; AID 1478; P25779; purified cruzain, Z-FR-AMC fluorescence, 0.01% Triton;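 note: plate controls were neutral wells for no effect and buffer without enzyme for full effect; nearly all actives have a fitted effect of over 40% in size; top concentration of the series not given in the record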
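Purified cruzain (1.5 nM final) was preincubated with compounds for 15 min at room temperature in 100 mM sodium acetate pH 5.5, 5 mM DTT, 0.01% Triton X-100. Reaction started with 2 uM Z-FR-AMC; AMC fluorescence change over 60 s gave activity.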
2A StopGo – FMDV 2A StopGo reporter, luciferase signal; Potency, µM (doses to about 57.9 µM), for inactives: top-dose signal change, negative = less light; AID 1159524; 410,000 compounds, 1.2% hits; human cells with a luciferase reporter of 2A StopGo recoding; control for the full effect not named in the record; active = well fitted falling curve with a large enough effect; inconclusive = small, poorly fitted or top-dose-only effect; inactive = no such curve, though single readings can be large or run the other way; tested in HEK293T cells; note: % is set by controls: 0 for no effect and ±100 for the full control effect; nearly all actives have a fitted effect of over 45% in size; luciferase light after 4 h
SARS PLP yeast – blocks SARS-CoV papain-like protease in a yeast assay; Potency, µM (doses to about 32.9 µM), inactives show at the highest dose activity, positive = growth rescue; AID 485353; S. cerevisiae expressing SARS-CoV PLpro, growth rescue; control for the full effect not named in the record; 330,000 compounds, 0.19% hits; active means well fitted rising curve with a large enough effect; inconclusive means small, poorly fitted or top-dose-only effect; inactive means no such curve, though single readings can be large or run the other way; note: 0% is about no effect; nearly all actives have a fitted effect of over 55% in size; growth read by luminescence after 48 h
NS1 function inh – inhibitors of influenza NS1 protein function; 270,000 compounds, 0.4% hits; Potency, µM (titrated, usually from 46.1 µM), for the others: at the top dose activity, positive = more growth; AID 2326; S. cerevisiae slowed by influenza A NS1, growth recovery by OD600; active means well fitted rising curve with a large enough effect; inconclusive means small, poorly fitted or top-dose-only effect; inactive means no such curve, though single readings can be large or run the other way; note: nearly all actives have a fitted effect of over 50% in size
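OD600 was taken as the measure of yeast growth restored by compound in an NS1-expressing S. cerevisiae strain. Cells had been washed out of glucose medium and diluted 1:100 into galactose -URA medium, pH 6.0.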
LASV entry inh – inhibitors of Lassa virus binding or cell entry. AID 540256. Potency, µM (top dose mostly 37.9 µM), inactives show at the top dose activity change, negative = inhibition, hits mostly inhibitors. Lassa virus pseudotype entry inhibition, cell reporter; control for the full effect not named in the record. 300,000 compounds, 1.2% hits; active means well fitted inhibition curve with a large enough effect; inconclusive means small, poorly fitted or top-dose-only effect, or effect the other way; inactive means flat fitted curve, though single readings scatter; tested in HEK293 cells; note: % is set by controls: 0 for no effect and ±100 for the full control effect; nearly all actives have a fitted effect of over 50% in size; luciferase read-out
Marburg entry inh – inhibitors of Marburg virus binding or cell entry | Marburg virus pseudotyped entry inhibition, cell reporter; control for the full effect not named in the record; about a third of the inactives were read at about 46 µM | Potency, µM (titrated, usually from 37.8 µM), for inactives: at the top dose activity change, negative = inhibition, actives largely listed as inhibitors | 300,000 compounds, 1.8% hits | AID 540276; active = well fitted inhibition curve with a large enough effect; inconclusive = small, poorly fitted or top-dose-only effect, or effect the other way; inactive = flat fitted curve, though single readings scatter; tested in HEK293 cells; about a fifth of its hits are not listed in these tables; note: % is set by controls: 0 for no effect and ±100 for the full control effect; luciferase read-out
* marks the source's active call; other numbers are inactive results; ? = inconclusive; nt = not tested or not shown; & = joins results of further samples; [ ] = another dose, or the depositor's remark. Unless noted, calls come from the whole dose curve; as a rule, active = well fitted curve in the direction sought with a large enough effect; inconclusive = small, poorly fitted or top-dose-only effect, or another doubt; inactive = no such curve, though single readings can be large; an effect the other way counts as inactive or inconclusive. Potency is the fitted concentration of half-maximal effect.

Values in the order – Cruzain noTriton	RE007 growth inh	Cruzain inh Det	2A StopGo	SARS PLP yeast	NS1 function inh	LASV entry inh	Marburg entry inh
CCc1nnc(NC(=O)CSc2nnnn2C)s1
→ -4%	0%	-1.6%	-6%	-1%	6%	2%	-2%
CCOC(=O)c1cc2c(=O)n3ccccc3nc2n(CCCOC)c1=NC(=O)c1cccnc1
→ -6%	nt	-5.8%	nt	-3%	-1%	nt	nt
O=C(Nc1ccc(OC(=O)c2ccncc2)cc1)c1ccncc1
→ -13%	-8%	4.5%	-10%	-5%	4%	20%	?
O=c1[nH]c(C2CCN(S(=O)(=O)c3ccccc3)CC2)nc2c1nnn2Cc1c(F)cccc1Cl
→ nt	-7%	nt	-16%	0%	16%	?	-6%[46.1 µM]
C=CCNC(=O)CC(=O)N/N=C/c1ccc(C(=O)OC)cc1
→ 1%	-3%	-3.9%	-23%	-2%	7%	7%	0%[46.1 µM]
CCN(CC)c1ccc(NC(=O)c2ccc(NC(=O)C3CCCO3)cc2)c(C)c1 (stereo not given)
→ -11%	-9%	0.7%	-21%	0%	-9%	6%	-11%
CCCCNC(=O)C1CCCN1C(=O)Nc1ccccc1 (stereo not given)
→ 8%	-3%	0.5%	-10%	-11%	17%	8%	2%
Cc1c(C(=O)N/N=C/c2ccc(-c3ccccc3[N+](=O)[O-])o2)sc(N)c1C#N
→ ?	-9%	-11%	9%	1%	-18%	-9%	4%
CCOC(=O)c1ccc(CNC(=O)C(Cc2c[nH]c3ccccc23)NC(C)=O)o1 (stereo not given)
→ 0%	0%	1.5%	-13%	6%	6%	45%[14.3 µM]	33%
CCc1ccc(-n2c(=O)c3c4c(sc3n(Cc3ccccc3C#N)c2=O)CCCC4)cc1
→ 24%	nt	-19%	-19%	nt	nt	-5%[46.1 µM]	-7%[46.1 µM]
O=C(Nc1ccccc1N1CCCC1)c1ccc(F)c(S(=O)(=O)N2CCOCC2)c1
→ nt	0%	nt	?	-5%	nt	?	1%
Cc1cc(C)cc(NC(=S)N(Cc2cccc(Br)c2)CC2CCC(C(=O)O)CC2)c1 (stereo not given)
→ nt	4%	nt	-6%	-6%	nt	6%	-8%
CN1C(=O)Cc2cc(S(=O)(=O)CCC(=O)Nc3ccccc3)ccc21
→ -3%	nt	0.6%	-10%	nt	nt	11%[46.1 µM]	nt
CC(C)(C)OC(=O)N[C@@H](Cc1ccccc1)C(=O)N[C@@H](CO)[C@H](O)[C@@H]1C[C@@H]1C(=O)NC1CC1
→ nt	-9%	nt	-12%	6%	7%	nt	nt
CCOC(=O)c1c(NC(=O)Nc2ccc(F)cc2)sc2c1CCN(C)C2
→ nt	-6%	nt	19%	-2%	2%	-26%[46.1 µM]	10%[46.1 µM]
CCOC(=O)c1c(C)[nH]c2ccc(O)cc12
→ -14%	-7%	1.7%	33%[activator]	0%	-2%	4%	3%
O=C(NCc1ccco1)C(c1ccc(F)cc1)N(Cc1cccnc1)C(=O)Cn1nnc2ccccc21 (stereo not given)
→ -2%	3%	5.8%	-16%	0%	-3%	6%	3%&3%
CC(C)NS(=O)(=O)c1ccc(NC(=O)CCc2ccccc2)cc1
→ 3%	-8%	3.9%	-15%	1%	0%	10%	18%
CCOCCc1nnc(NC(=O)Cc2ccccc2)s1
→ -1%	-11%	0.4%	4%	-4%	1%	-15%	30%
Cc1cccc(NC(=S)N2CCCN(c3ncccc3[N+](=O)[O-])CC2)c1
→ nt	9%	nt	-2%	1%	-3%	-21%	-9%
O=C(c1ccco1)N1CCN(S(=O)(=O)c2cccs2)CC1
→ -1%	-3%	1.5%	nt	-5%	0%	16%	16%
CNC(=O)NC(=O)COc1ccc2oc3c(c2c1)CCCC3
→ nt	-1%	nt	64%[activator]	-8%	-42%	0%	12%[46.1 µM]
COc1ccc(/C=N/NC(=O)c2ccc(Cl)c(S(N)(=O)=O)c2)cc1OCC(N)=O
→ nt	1%	nt	-19%	0%	8%	-2%	nt
Cc1ccc(C)c(Nc2nnc(-c3ccc(C)c(S(=O)(=O)NCC4CCCO4)c3)c3ccccc23)c1 (stereo not given)
→ 3%	nt	-7.2%	1%	nt	nt	-16%[46.1 µM]	?
O=C(Nc1ccccc1N1CCOCC1)c1ccc2ccccc2n1
→ 8%	-7%	-6.6%	6%	-11%	-66%	-10%	-17%
CCOc1ccc(CCNC(=O)COC(=O)c2cccc(S(=O)(=O)N3CCCCC3)c2)cc1OCC
→ nt	12%	nt	-10%	-2%	nt	-10%	-25%
Fc1ccc(-c2nnc3ccc(N4CCc5ccccc5C4)nn23)cc1
→ 16%	11%	-5.3%	-20%	-7%	?	nt	nt
Cc1ccc(OCC(=O)Nc2ccc(-c3nnc(-c4ccco4)o3)cc2)cc1
→ 0%	2%	4.3%	-2%	0%	3%	2%	?
COc1ccccc1CNC(=O)c1cc2ccccc2oc1=O
→ nt	1%	nt	40%[activator]	0%	0%	nt	nt
NNC(=O)c1nnn(-c2nonc2N)c1CN1CCc2ccccc2C1
→ nt	-13%	nt	-2%	3%	nt	-17%[46.1 µM]	?

Exported tab-delimited: part of the list above.
molecule	Cruzain noTriton	RE007 growth inh	Cruzain inh Det	2A StopGo	SARS PLP yeast	NS1 function inh	LASV entry inh	Marburg entry inh
O=C(Nc1ccccc1N1CCOCC1)c1ccc2ccccc2n1	8%	-7%	-6.6%	6%	-11%	-66%	-10%	-17%
CC(C)(C)OC(=O)N[C@@H](Cc1ccccc1)C(=O)N[C@@H](CO)[C@H](O)[C@@H]1C[C@@H]1C(=O)NC1CC1	nt	-9%	nt	-12%	6%	7%	nt	nt

Structural class, the compounds so far containing two or more sulfur atoms
Values in the order – Cruzain noTriton	RE007 growth inh	Cruzain inh Det	2A StopGo	SARS PLP yeast	NS1 function inh	LASV entry inh	Marburg entry inh
CCc1nnc(NC(=O)CSc2nnnn2C)s1
→ -4%	0%	-1.6%	-6%	-1%	6%	2%	-2%
O=C(c1ccco1)N1CCN(S(=O)(=O)c2cccs2)CC1
→ -1%	-3%	1.5%	nt	-5%	0%	16%	16%

Returning to the listing with the 2 entries that preceded the break.
Values in the order – Cruzain noTriton	RE007 growth inh	Cruzain inh Det	2A StopGo	SARS PLP yeast	NS1 function inh	LASV entry inh	Marburg entry inh
COc1ccccc1CNC(=O)c1cc2ccccc2oc1=O
→ nt	1%	nt	40%[activator]	0%	0%	nt	nt
NNC(=O)c1nnn(-c2nonc2N)c1CN1CCc2ccccc2C1
→ nt	-13%	nt	-2%	3%	nt	-17%[46.1 µM]	?
CC1CN(Cc2ccccc2)C(=S)NC1=O (stereo not given)
→ nt	-10%	nt	-10%	nt	nt	3%	?
Cc1cccc(-c2nc(C)c(CCNC(=O)c3cccs3)s2)c1
→ -11%	nt	-8.5%	23%	nt	nt	?	nt
COc1ccc(OC)c(S(=O)(=O)NCCc2sc(C)nc2C)c1
→ -11%	nt	-3.2%	107%[activator]	nt	nt	-5%[46.1 µM]	nt
CCOc1ccc(N(CC(=O)NC2CCCCC2)C(=O)CNC(=O)c2cccs2)cc1
→ nt	-18%	nt	5%	2%	3%	?	22%[46.1 µM]
Cc1ccc(C2(c3noc(CN(C)Cc4cccnc4)n3)CCCC2)cc1
→ nt	1%	nt	-29%	-4%	-14%	nt	nt
CN1C(CCl)Nc2cc(Cl)c(S(N)(=O)=O)cc2S1(=O)=O (stereo not given)
→ nt	14%	nt	0%	nt	nt	0%	-7%
C[C@@H](Oc1ccc(Oc2cnc3ccc(Cl)cc3n2)cc1)C(=O)O
→ 6%	nt	-5.4%	nt	nt	-31%	nt	?
CC(=O)Cc1nsc(NC(=O)C2Cc3ccccc3C(=O)O2)n1 (stereo not given)
→ 5%	-1%	3.4%	-14%	4%	4%	nt	nt
Cc1ccccc1Cn1c(Oc2ccccc2F)nc2c1c(=O)n(C)c(=O)n2C
→ 1%	nt	2.5%	-14%	nt	nt	-6%[46.1 µM]	nt
COc1ccc(C)cc1N(CC(=O)N1CCCCCC1)S(=O)(=O)c1ccc(C)cc1
→ nt	-12%	nt	29%	-6%	4%	-8%	?
CCCc1ccc(OCC(O)CN2CCN(c3ccccn3)CC2)cc1 (stereo not given)
→ nt	1%	nt	-11%	0%	-24%	nt	nt
Cc1ccc(NC(=O)CCN2CC(C)OC(C)C2)cc1 (stereo not given)
→ nt	6%	nt	3%	2%	-11%	12%[46.1 µM]	?
CCCCN(C(=O)COC(=O)c1ccc(C=O)cc1)c1c(N)n(CCC)c(=O)[nH]c1=O
→ nt	-15%	nt	1%	0%	nt	10%	-23%
O=C(COc1ccccc1-c1ccccc1)N/N=C/c1ccccn1
→ nt	-8%	nt	?	-4%	-10%	nt	nt
COc1ccccc1C(=O)NC(=S)N1CCCc2ccccc21
→ ?	14%	-1.6%	-8%	-21%	27%	-3%	26%
O=S(=O)(N/N=C/c1ccc(N2CCOCC2)cc1)c1ccccc1
→ nt	22%	nt	27%	0%	nt	-16%	?
CCCC1=Nc2cc(C(=O)NCC(C)c3ccccc3)ccc2Sc2ccccc21 (stereo not given)
→ ?	nt	-2.6%	-20%	nt	nt	?	?
COC(CNC(=O)CNC(=S)N(CCCN1CCOCC1)Cc1cccs1)OC
→ nt	1%	nt	-19%	-1%	5%	nt	6%[46.1 µM]
CCOC(=O)N1CCN(C(=O)C2CCN(S(=O)(=O)c3ccc(OCC)cc3)CC2)CC1
→ nt	-2%	nt	-17%	5%	-5%	-2%[46.1 µM]	18%[46.1 µM]
COc1ccc(-n2c(=O)c3ccccc3n(Cc3ccc(F)cc3)c2=O)cc1OC
→ 16%	-10%	0.1%	-14%	0%	1%	-3%	-5%
